High-throughput results as filed in PubChem BioAssay.
Vaccinia mCherry = vaccinia inhibition (mCherry reporter). Vaccinia virus mCherry reporter infection, fluorescence; about a quarter of the inactives have no number. Potency, µM (doses to about 36.5 µM), inactives show at the highest dose activity change, negative = inhibition, most hits filed as inhibitors. actives 0.63% (n = 310,000); active = well fitted inhibition curve with a large enough effect; inconclusive = small, poorly fitted or top-dose-only effect; inactive = no such curve, though single readings can be large or run the other way; tested in A549 cells; note: nearly all actives have a fitted effect of over 35% in size; inactives centre near -10
Vaccinia Venus = vaccinia inhibition (Venus reporter); Vaccinia virus Venus reporter expression, fluorescence; Potency, µM (top dose mostly 36.5 µM), for inactives: at the highest dose activity change, negative = inhibition, hits mostly inhibitors; actives 0.46% (n = 330,000); AID 720580; active means well fitted inhibition curve with a large enough effect; inconclusive means small, poorly fitted or top-dose-only effect; inactive means no such curve, though single readings can be large or run the other way; tested in A549 cells; note: nearly all actives have a fitted effect of over 30% in size; inactives centre near -10
* marks the source's active call; other numbers are inactive results; i = inactive; u = inconclusive; x = no result given; & = joins results of further samples; [ ] = remark or other dose. % is set by controls: 0 for no effect and ±100 for the full control effect; potency is the fitted concentration of half-maximal effect.

SMILES	Vaccinia mCherry	Vaccinia Venus
COc1ccc(NC(=O)N2CCN(C(=O)C3CCCO3)CC2)cc1 (configuration not stated)	-12.2%	-4.1%
COc1ccccc1CNC(=O)COc1cc2c(c3oc(=O)cc(C)c13)CCC(C)(C)O2	-9.3%	-3.9%
CN(C(=O)CC1C(=O)NCCN1Cc1ccc(F)c(F)c1)C1CCCCC1 (configuration not stated)	-22.4%	-19.0%
COc1ccc(NC(=O)c2cccc(NC(=O)c3ccccc3)c2)c(OC)c1	-4.0%	-17.3%
CN(C)C(=O)Oc1cc(=O)n2c3c(cccc13)CCC2	-9.7%	-4.4%
N#CC12CC(=O)N1Cc1cnnn1-c1ccccc12 (configuration not stated)	i	-2.8%
COc1cccc(OC)c1C(=O)Nc1ccc2c(c1)Cc1ccccc1-2	i	-8.5%
COc1ccc2oc(C(=O)OCC(=O)N(C)CC(=O)Nc3ccc(C)cc3)c(C)c2c1	-10.7%	-3.8%
O=C(NC1CC(=O)N(c2ccc(Cl)cc2)C1)C1CC1 (configuration not stated)	0.0%	-1.4%
NC(=O)C(CC(=O)O)NC(=O)[C@@H]1CCCNc2c(I)cc([N+](=O)[O-])cc2C(=O)N[C@@H](CO)C(=O)N[C@@H](Cc2ccc(O)cc2)C(=O)N1 (some centres not stated)	i	-3.1%

Some of these compounds in order of heavy-atom count, falling.
SMILES	Vaccinia mCherry	Vaccinia Venus
COc1ccccc1CNC(=O)COc1cc2c(c3oc(=O)cc(C)c13)CCC(C)(C)O2	-9.3%	-3.9%
CN(C(=O)CC1C(=O)NCCN1Cc1ccc(F)c(F)c1)C1CCCCC1 (configuration not stated)	-22.4%	-19.0%
COc1ccc(NC(=O)N2CCN(C(=O)C3CCCO3)CC2)cc1 (configuration not stated)	-12.2%	-4.1%

Additional structures
SMILES	Vaccinia mCherry	Vaccinia Venus
COc1cc(NC(=O)c2cccs2)ccc1NC(=O)Cc1ccccc1	-18.1%	-19.2%
COc1ccc(OC)c(-c2csc(N3CCC(c4ccccc4)CC3)n2)c1	-12.5%	-7.1%
CNC(=S)N(CCc1ccccc1)Cc1cc2cc(OC)c(OC)cc2[nH]c1=O	i	-12.6%
CC(Oc1ccc(F)cc1)c1ccnc2nc(/N=C/N(C)C)nn12 (configuration not stated)	-26.4%	-5.7%
Cc1c(C(=O)Nc2ccc(F)c(Cl)c2)sc2nc3n(c(=O)c12)CCC3	-19.0%	-19.7%
O=C(NCC(=O)N(CC1CCCO1)C(C(=O)NC1CCCCC1)c1cccnc1)c1cccs1 (configuration not stated)	i	-10.6%
COc1cc(NC(=O)c2cnc3c(-c4ccc(F)cc4)c(C)nn3c2C)cc(OC)c1	-5.2%	-18.0%
Cc1ccc(OCC(=O)N2CCN(Cc3ccc([N+](=O)[O-])cc3)CC2)cc1	i	-6.4%
COc1ccc(C2=C(C)C(=NCc3ccc(OC(C)C)cc3)NS2(=O)=O)cc1	-2.3%	0.2%
COc1cc(/C=C2/C(=O)ON=C2C)ccc1OCc1ccccc1F	i	-9.4%
O=C(c1ccco1)N(CCO)Cc1cc2cc3c(cc2[nH]c1=O)OCO3	-3.5%	0.4%
O=C(COC(=O)[C@@H]1CC(O)CN1S(=O)(=O)c1ccc(Cl)cc1)NC(=O)NCc1ccccc1 (some centres not stated)	-3.2%	-15.1%
COCc1cc(Sc2c(Cl)cccc2Cl)nc(-c2ccccc2)n1	x	-4.0%
O=C(N/N=C/c1cc2c(cc1Cl)OCO2)c1ccc2c(c1)OCCO2	0.0%	-14.1%
COc1ccc2[nH]cc(CCCN3C(=O)c4ccccc4C3=O)c2c1	-7.6%	-5.8%
CCC1OC(=O)C(C)C(OC2C[C@@](C)(OC)C(O)C(C)O2)C(C)C(O[C@@H]2OC(C)CC(N(C)C)C2O)[C@](C)(O)CC(C)C(=NOCOCCOC)C(C)C(O)[C@]1(C)O (some centres not stated)	i	-22.4%
COc1ccccc1NCc1cccn1-c1nnc(N2CCOCC2)s1	1.0%	1.4%
O=C(NC1CCCCCC1)c1ccc(CS(=O)c2cccc(Cl)c2)o1 (configuration not stated)	-9.3%	-7.0%
Cc1ccc(C(=O)C2CCN(S(=O)(=O)c3ccccc3C(=O)O)CC2)cc1	i	-14.8%
CCOc1ccc(-n2nc(CO)c(C(=O)NCc3cccs3)n2)cc1	-9.4%	-21.5%

Compounds shown so far with a thiophene ring, fused or not, in the order listed:
SMILES	Vaccinia mCherry	Vaccinia Venus
COc1cc(NC(=O)c2cccs2)ccc1NC(=O)Cc1ccccc1	-18.1%	-19.2%
Cc1c(C(=O)Nc2ccc(F)c(Cl)c2)sc2nc3n(c(=O)c12)CCC3	-19.0%	-19.7%
O=C(NCC(=O)N(CC1CCCO1)C(C(=O)NC1CCCCC1)c1cccnc1)c1cccs1 (configuration not stated)	i	-10.6%
CCOc1ccc(-n2nc(CO)c(C(=O)NCc3cccs3)n2)cc1	-9.4%	-21.5%

Later entries:
SMILES	Vaccinia mCherry	Vaccinia Venus
COc1ccc(CNC(=O)c2csc(Cc3ccccc3)n2)cc1	x	-10.9%
CCCCN(C(=O)CSc1nn(-c2ccc(F)cc2)c(=S)s1)c1c(N)n(CCCC)c(=O)[nH]c1=O	-13.0%	-6.6%
COC(=O)COc1nc(C)c(Br)c(OC)n1	x	0.5%
O=C(C1CCN(C2CCN(Cc3ccc4c(c3)CCO4)CC2)CC1)N1CCOCC1	-18.6%	-15.3%
Cc1ccccc1C(=O)NNC(=O)c1cccc([N+](=O)[O-])c1	-4.1%	-11.0%
CCOc1ccc(-n2cnc3sc(C)c(C)c3c2=O)cc1	-4.5%	-0.5%
Cc1ccc(C2c3[nH]c4ccccc4c3CCN2C(=O)c2ccccc2Br)cc1 (configuration not stated)	-13.1%	-12.2%
O=c1c2ccccc2nc2n1CCO2	-13.4%	-4.6%
CCOC(=O)C1CCN(CC(C)(C)NS(=O)(=O)c2ccc(Cl)cc2)CC1	-6.3%	-1.3%
CCOC(=O)[C@]12CCC=C1N(Cc1ccc3c(c1)OCO3)C(=O)[C@H](CC(=O)N1CCOCC1)C2	-3.3%	1.0%
CN(C(=O)C1CCC(=O)N(Cc2cccc(F)c2)C1)C1CCCCC1 (configuration not stated)	-18.5%	-12.0%
COc1ccc(/C=N/NC(=O)C(=O)N2CCCCCC2)cc1O	-26.8%	-16.5%
COc1cccc(C(C)(O)c2nc(-c3ccc(N(C)C)cc3)cs2)c1 (configuration not stated)	11.9%	-14.4%
O=C(OC(C(=O)NCC1CCCO1)c1ccccc1F)c1ccco1 (configuration not stated)	-3.6%	2.8%
COc1ccc(CCN2CC(C(=O)NCCN3CCCC3=O)CCC2=O)cc1 (configuration not stated)	-15.1%	-11.0%
CSc1cccc(NC(=O)Cc2ccccc2[N+](=O)[O-])c1	u	-10.9%
O=C(CNCCc1ccccc1)N1CCc2ccccc2C1	1.1%	12.3%
COc1ccc(Cl)cc1Nc1cc(C)nc2nc(-c3ccccc3C)nn12	-23.7%	-23.4%
Cc1ccc2nc(N(CCCN(C)C)C(=O)c3sc4ccccc4c3Cl)sc2c1	-27.2%	-19.7%
CC(=O)c1cccc(NC(=O)CN(c2ccc(C)cc2)S(=O)(=O)c2cccc3nonc23)c1	-17.6%	-12.2%
CCOC(=O)c1c(NC(=O)CN(CC)CC)sc2c1CCC2	-0.8%	-20.1%
O=C(CS(=O)(=O)c1cccc2nsnc12)N1CCN(c2ccccc2)CC1	-11.9%	-3.1%
COc1ccc(-n2cccc2/C=C2\C(=N)N3N=C(C(C)C)SC3=NC2=O)cc1	-8.7%	-7.8%
COc1ccccc1CNC(=O)c1sc2nc3n(c(=O)c2c1C)CCC3	-6.5%	0.8%
COc1ccc(C2Cc3ccccc3C(=O)O2)cc1 (configuration not stated)	-6.4%	7.4%
COc1ccccc1/C=C/C(=O)NCC(=O)N/N=C/c1cc(Br)ccc1OC	x	-19.8%
C[C@@H]1CN([C@H](C)CO)C(=O)c2cccc(NC(=O)Nc3ccc(C(F)(F)F)cc3)c2O[C@H]1CN(C)S(=O)(=O)c1cccs1	-31.0%	u
O=c1c2ccccc2nc(SCc2cn3ccsc3n2)n1-c1ccccc1F	u	u
COCCN(C(=O)COC(=O)C12CC3CC(CC(Cl)(C3)C1)C2)c1c(N)n(Cc2ccccc2)c(=O)[nH]c1=O	-6.0%	-6.1%
CCCCOCCCNC(=O)c1ccc(OCC)cc1	x	-3.5%
CCCn1c(C)cc(/C=C(\C#N)C(=O)OCC(=O)NC(=O)NC(C)(C)C)c1C	-13.9%	-6.9%
COC(=O)c1c(NC(=O)COc2ccc(Cl)cc2)sc2c1CC(C)(C)NC2(C)C	i	-9.0%
CC(C)c1ccc(N(C(=O)c2csnn2)C(C(=O)NC(C)(C)C)c2ccncc2)cc1 (configuration not stated)	-0.3%	-6.7%
COc1cc(C(=O)NCc2ccccn2)ccc1OCc1c(C)noc1C	i	0.0%
COc1cc2c[n+](C)c3c4ccccc4ccc3c2cc1OC	-13.8%	-10.8%
COc1ccc(NC(=O)CC2C(=O)N(c3ccccc3)C(=O)N2Cc2ccco2)cc1 (configuration not stated)	i	-13.7%
COc1ccc(-c2cc(-c3ccccc3)c(C#N)c(SCC(O)CS(=O)(=O)Cc3ccc(Cl)cc3)n2)cc1 (configuration not stated)	-5.6%	-11.6%
CCOc1ccc2ccccc2c1/C=N/NC(=O)CC1(C)OCCCO1	-1.1%	-8.4%
CCOc1ccc(C2c3c(oc4ccc(C)cc4c3=O)C(=O)N2CCCN(C)C)cc1OC (configuration not stated)	-16.1%	2.2%
O=C(C1CCN(S(=O)(=O)c2cccnc2)CC1)N1CCN(c2cccc(Cl)c2)CC1	-45.6%	-15.1%
CC[C@@H](NC(=O)[C@@H](Cc1ccccc1)NC(=O)CC[C@H]1O[C@@H](n2ccc(=O)[nH]c2=O)[C@H](O)[C@@H]1O)c1ccccc1	14.7%	-6.0%
Cc1noc(C)c1COc1ccc(C(=O)OCC(N)=O)cc1	5.7%	5.8%
CC(C)c1ccc2nc(NC(=O)C3CC3)sc2c1	8.1%	-17.2%
O=C(CN(C1CC1)S(=O)(=O)c1ccc(S(=O)(=O)N2CCCCCC2)cc1)Nc1ccccc1	x	-29.4%
COc1ccc(-c2noc(CCC(=O)O)n2)cc1	-13.6%	2.7%
CCOC(=O)c1ccc(NC(=O)Oc2cc(C)c(Cl)cc2C(C)C)cc1	i	-29.8%
COc1ccc(CN([C@H](CO)CC(C)C)S(=O)(=O)N(Cc2ccccc2)[C@H](CO)CC(C)C)cc1	u	12.6µM*
Cc1ccccc1C(=O)NC(=S)Nc1ccc(N2CCN(C(=O)c3ccccc3)CC2)cc1	i	-6.9%
CCCCNc1c(-c2cccc(SC(C)CC)c2)nc2ccc(Cl)cn12 (configuration not stated)	-17.6%&-5.9%	-5.8%&-4.7%
Cc1ccc(C(=O)NNC(=O)c2cccc(C)c2)cc1	i	-13.8%
Additional results follow.
SMILES	Vaccinia mCherry	Vaccinia Venus
Cc1cc(NC(=O)COC(=O)CCS(=O)(=O)c2ccc(C)c(C)c2)no1	3.6%	3.7%
CCOC(=O)c1nc2ccccc2nc1C	i	-6.4%
Cc1cccc(Nc2nc3ccccc3n3nnnc23)c1	-5.7%	-14.8%
Cc1ccc(NC(=O)Nc2cccc(C(F)(F)F)c2)nc1	i	-3.5%
COc1ccccc1NC(=O)CSc1nc(O)c(Cc2ccccc2)c(=O)[nH]1	-7.7%	0.7%
COc1cccc(OC)c1C(=O)N1CCN(c2ccccn2)CC1	-6.3%	-16.7%
CC(C#N)Sc1ncnc2sc(-c3ccccc3)cc12 (configuration not stated)	-9.6%	-14.9%
O=C(c1cccc(S(=O)(=O)NCc2ccccc2)c1)N1CCCC1	-4.6%	2.0%
COc1ccc(N=Cc2c(O)n(Cc3cccs3)c(=O)[nH]c2=O)cc1	-0.8%	-17.3%
CCCOC(=O)NC(CC)COC(=O)Nc1cc(C)ccc1C (configuration not stated)	-2.3%[1.46 µM]	-27.0%
Cc1cc(NC(=O)c2ccco2)c(=O)n(Cc2c(F)cccc2Cl)c1	-15.2%	-6.5%
COc1ccc(-n2c(-c3ccco3)nc3c(cnn3-c3ccc(Cl)cc3)c2=O)cc1	u	u
CS(=O)(=O)Nc1ccc(C2=NN(C(=O)c3ccco3)C(c3ccccc3)C2)cc1 (configuration not stated)	-29.5%	-24.4%
O=C(c1cccc(Oc2ccc([N+](=O)[O-])cc2Cl)c1)N1CCOCC1	i	-15.5%
Cc1cc(OCCOc2cccc3cccnc23)c(C)cc1Cl	-9.7%	-4.7%
COC(=O)CCc1c(C)c(C(=O)c2ccc(F)cc2)c2ccccn12	-1.0%	-6.1%
COC(=O)c1ccc(NC(=O)N2CCC(O)(c3cccnc3)CC2)cc1	-12.8%	-8.3%
Cc1cc(NC(=O)CCC(=O)N(CC(=O)NCC2CCCO2)c2ccccc2)no1 (configuration not stated)	i	-11.5%
C/C=C/c1cc(OC)c2c(c1)[C@H](C)[C@@H](c1ccc(O)c(OC)c1)O2	-8.4%	-2.1%
O=C(/C=C/c1cn(CC(O)CN2CCCCCC2)c2ccccc12)c1ccc(Br)cc1 (configuration not stated)	i	-3.1%
COc1ccc(S(=O)(=O)NC(N)=NCCc2ccc(OC)c(OC)c2)cc1C	i	-1.7%
O=S(=O)(c1ccc(Br)cc1)c1nnn2c1nc(N1CCOCC1)c1sccc12	u	-26.0%
Cc1ccc(NCc2nnc(SCC(=O)c3ccccc3)n2Cc2ccco2)c(C)c1	-0.4%	-6.5%
CN(Cc1ccco1)S(=O)(=O)c1ccc2c(c1)CCN2C(=O)CCC(=O)O	i	-4.0%
CCOc1ccc2c(c1)OC1(CCC(C)C1)CC2=O (configuration not stated)	i	-22.1%
CCN1C(=O)[C@@H]2[C@@H](c3ccc(-c4ccc(F)cc4)c(OC)c3)N3CCC[C@@]3(C(=O)OC)[C@@H]2C1=O	-7.4%	-23.4%
